Measles inh – inhibitors of measles virus growth in infected cells; infected Vero cells, GFP fluorescence, 64 h; active compounds read low; z-score (no concentration beside the values); hit rate 0.1% among 33,000; AID 745;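 active = z-score under -3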;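 note: score is relative to mean and SD of the compound wells of a plate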
Active calls of the source: *. This is a subset (hit frequency here may not be typical).

SMILES	Measles inh
Cc1c(C(=O)Nc2ccccc2Br)oc2ccc(S(=O)(=O)N3CCCC3)cc12	-0.8
CC1(C)Cc2nc3sc4c(=O)n(Cc5ccccc5)cnc4c3cc2CO1	0.84
COc1ccc(N=c2oc3c(C)ncc(CO)c3cc2C(=O)Nc2cccc(C(F)(F)F)c2)c(OC)c1	-0.12
Cc1cccc(N2C(=O)c3cccc4cccc(c34)C2=O)c1C	-0.46
Cc1c(C)c2ccc(OCc3ccc(C(=O)O)o3)c(C)c2oc1=O	-0.32
COC(=O)c1ccc(N2C(=O)CC(N3CCN(C)CC3)C2=O)cc1 (stereo not drawn)	-1.4
O=C(Nc1cc(Br)cc2cccnc12)c1ccc(Br)c(S(=O)(=O)N2CCCCC2)c1	-0.2
COc1ccc(-c2nc(-c3ccc(OC)c(C)c3OC)[nH]c2-c2ccc(OC)cc2)cc1	-0.26
O=C(Nc1ccc(Br)cc1)c1ccc(Oc2ccc([N+](=O)[O-])cc2)cc1	-0.09
COc1ccc2cc3cc(C(=O)N(C)c4ccc(Cl)cc4)sc3nc2c1	0.53
CCN(CC)S(=O)(=O)c1ccc(C(=O)Nc2nc3c(C)cccc3s2)cc1	-0.33
COc1ccc(S(=O)(=O)Nc2ccc(-c3csc(-c4ccccc4)n3)cc2)cc1	-1.1
COCCOC(=O)C1=C(C)NC2=C(C(=O)CCC2)C1c1cc(OC)ccc1OC (stereo not drawn)	0.99
CN1C(=O)NC(c2cccc(C(F)(F)F)c2)C(C(=O)c2cccs2)C1(O)C(F)(F)F (stereo not drawn)	-1.3
COC(=O)C1=C(C)N(C)C(=S)NC1c1ccc(Br)cc1 (stereo not drawn)	-1.5
CC(=O)Nc1cc(C(=O)N2CCCC2)ccc1Sc1ccc(C)cc1	0.51
Cc1ccc(CNC(=O)CC(NS(=O)(=O)c2ccc(Cl)cc2)c2ccco2)cc1 (stereo not drawn)	1.7
Cc1cccc(-n2nc3c(c2NC(=O)c2ccc(F)cc2)CS(=O)(=O)C3)c1C	0.76
CSc1ccc(C2SCC(=O)N2c2ccc(C)c(F)c2)cc1 (stereo not drawn)	-0.68
CN(C)CCN(Cc1ccccc1)c1ccc(N2C(=O)C3C4C=CC(C4)C3C2=O)cc1[N+](=O)[O-] (stereo not drawn)	-0.54
Cc1ccccc1-n1nc2c(c1NC(=O)c1ccc(S(=O)(=O)N3CCCCC3)cc1)CSC2	1.4
CNC(=O)C1=C(C)NC(=S)NC1c1ccc(OCC(C)C)c(OC)c1 (stereo not drawn)	0.31
CCOC(=O)c1c(C)oc2ccc(NS(=O)(=O)c3ccc4ccccc4c3)cc12	-0.59
CC1=CC(C)C2(CO)COC(c3ccccc3O)C1C2C (stereo not drawn)	0.85
CC1(C)CC(=O)c2sc(Nc3ccccc3Cl)nc2C1	-0.32
O=C(Nc1nc2ccc(Br)cc2s1)c1c(O)c2c([nH]c1=O)CCCC2	-1.4
CCN1CNC(=S)N(CCc2ccccc2)C1	0.66
CCN1C(C(=O)c2ccccc2)=C(NC(=O)c2ccc(C)cc2)c2ccccc2S1(=O)=O	-0.47
CC1=C(C(=O)Nc2ccc(C)cn2)C(c2ccccc2C)C2=C(CCCC2=O)N1 (stereo not drawn)	0.87
COCCNc1nc(SCC(=O)N2CCN(c3ccccc3)CC2)nc2ccccc12	0.12
C=CCn1c(SCc2ccc(Cl)cc2)nc2cc(C(=O)N3CCOCC3)ccc2c1=O	1
COc1cccc2cc(-c3cn(-c4cccc(Br)c4)c(=S)[nH]3)c(=O)oc12	-0.07
COc1cc(C(=O)Nc2c3c(nn2-c2ccc([N+](=O)[O-])cc2)CSC3)cc(OC)c1OC	-0.86
Cc1ccc(-c2cc(C(=O)Nc3ncccn3)c3ccccc3n2)cc1C	0.11
CCn1ccc(C(=O)Nc2sc(C(=O)OC)c(C)c2C(=O)OC)n1	0.92
Cc1ccc(N2C(=O)c3cc(N4CCN(c5ccccc5Cl)CC4)c([N+](=O)[O-])cc3C2=O)cc1	-0.39
COc1ccc(Nc2ncc(C(=O)Nc3cc(C)on3)c3ccccc23)cc1	-0.8
COc1cccc(NS(=O)(=O)c2cnc[nH]2)c1	0.5
CCOc1ccc(NC(=O)c2cc(S(=O)(=O)NC3CCCCCC3)ccc2F)cc1	-0.4
O=C(NCc1cccs1)C1CCCN(S(=O)(=O)c2cccnc2)C1 (stereo not drawn)	0.55
CCN(c1ccc(C)c(C)c1)S(=O)(=O)c1ccc2[nH]c(=O)c(=O)[nH]c2c1	1.5
Cc1sc2ncn(CC(=O)NCCN3CCOCC3)c(=O)c2c1S(=O)(=O)N1CCOCC1	0.3
CCCCc1nc2sc3c(NCCN4CCOCC4)ncnc3c2c2c1COC(C)(C)C2	0
CCc1ccccc1NC(=O)c1cnn2c1NC(c1cc(OC)c(OC)c(OC)c1)CC2C(F)(F)F (stereo not drawn)	0.27
C=CCSc1ncnc2c1sc1nc(N3CCOCC3)c3c(c12)CCCC3	-0.43
Cc1ccc(C2CC(c3ccccc3F)n3ncnc3N2)cc1 (stereo not drawn)	-0.39
CCOC(=O)c1nn(-c2ccc(Cl)cc2)c(=O)c2c(NC(=O)c3cccc(OC)c3OC)scc12	-1.3
O=C(NC1CCCC1)C1c2ccccc2C(=O)N1Cc1ccc2c(c1)OCO2 (stereo not drawn)	-0.46
COc1ccc(N2CCN(C(=O)C(NS(=O)(=O)c3cccs3)c3ccccc3)CC2)cc1 (stereo not drawn)	1.3
O=C(Nc1ccc(Cl)cn1)C1CCCN(S(=O)(=O)c2cccc3nsnc23)C1 (stereo not drawn)	-1.3
CN(C)c1ccc(C2CC(c3cccs3)=NN2C(=O)CCC(=O)O)cc1 (stereo not drawn)	1
CC1CCC2C(=O)N(c3ccc(C(=O)OC(C)C(=O)c4ccccc4)cc3)C(=O)C2C1 (stereo not drawn)	0.31
CC(C)NC(=O)c1ccc2c(c1)NC(=O)C(N1CCCCC1)S2 (stereo not drawn)	1.5
CC(=O)N1c2c(cc(Br)cc2S(=O)(=O)NCCc2ccccc2)CC1C (stereo not drawn)	1.1
CC(=O)OCC1OC(n2cc(Br)c(=O)[nH]c2=O)C(OC(C)=O)C1OC(C)=O (stereo not drawn)	0.26
Cc1ccccc1-c1nc2cc(NC(=O)C(C)C)ccc2o1	-1.1
COc1ccccc1-n1c(SCC(=O)Nc2cc(C)ccc2C)nc2c(c1=O)SCC2	0.58
COc1ccc(C(NC(=O)Cc2cc3ccccc3[nH]2)C(=O)Nc2ccc3c(c2)OCO3)cc1 (stereo not drawn)	0.38
Cc1cc2ccccc2c(=O)n1CC(=O)NCC(=O)N1CCC(Cc2ccccc2)CC1	-0.61
Cc1cc(NS(=O)(=O)c2ccc(NC(=O)C3COc4ccccc4O3)cc2)nc(C)n1 (stereo not drawn)	-0.53

2 successive entries already listed, quoted:
SMILES	Measles inh
Cc1cc2ccccc2c(=O)n1CC(=O)NCC(=O)N1CCC(Cc2ccccc2)CC1	-0.61
Cc1cc(NS(=O)(=O)c2ccc(NC(=O)C3COc4ccccc4O3)cc2)nc(C)n1 (stereo not drawn)	-0.53

The list continues.
SMILES	Measles inh
CC(=N)c1c(O)c2ccccc2oc1=O	-0.02
COc1ccc2nc3sc(C(=O)NCC4CCCO4)cc3cc2c1 (stereo not drawn)	0.19
O=C(c1ccc(CNc2nc(=S)[nH]c3ccccc23)cc1)N1CCN(C(=O)c2ccco2)CC1	0.74
CC1CC(C)CN(C(=O)Cn2c(=O)n(CCCC(=O)N3CCc4ccccc4C3)c(=O)c3ccccc32)C1 (stereo not drawn)	-0.22
C=CCN(CC=C)C(=O)c1ccc2snnc2c1	0.5
COc1ccc(COC(=O)C2=C(C)NC3=C(C(=O)CC(C)(C)C3)C2c2ccc(Cl)c([N+](=O)[O-])c2)cc1 (stereo not drawn)	-0.27
CC(C)Cc1nnc(NC=O)s1	0.32
CCOC(=O)c1ccc(N=Cc2ccc(N3CCOCC3)cc2)cc1	1.1
CC(=O)NCCn1c(SCc2ccccc2Cl)nc2ccccc2c1=O	-2.2
CCOC(=O)c1sc2cc([N+](=O)[O-])cc(SCC(C)C)c2c1-n1cccc1	-0.66
CCCCNC(=O)c1nn2c(C(F)(F)F)cc(-c3ccc(OC)cc3)nc2c1Br	-0.66
CN(C(=O)c1ccccn1)C1(C(=O)NC2CCCCC2)CCCCC1	-0.66
CCC1Oc2ccc(Cl)cc2N(C(C)C(=O)NCCC(C)C)C1=O (stereo not drawn)	-1.2
CCC(C)C(NS(=O)(=O)c1cccc2nsnc12)C(=O)O (stereo not drawn)	-0.04
Cc1ccc(Cc2nc3cc(C)c(C)cc3[nH]c2=O)c(C)c1	0.29
COc1cc(C)nc(N(CC(N)=O)S(=O)(=O)c2ccccc2)n1	-0.27
O=C(CN1C(=O)CSc2ccc(S(=O)(=O)N3CCCCC3)cc21)NCc1cccnc1	0.24
CC1=C(C(=O)OC(C)C)C(c2ccncc2)C2=C(CC(c3ccccc3)CC2=O)N1 (stereo not drawn)	-0.14
O=c1nc(N2CCOCC2)c(Cl)cn1-c1nc(-c2ccccc2)oc1-c1ccccc1	0.22
CC(C)C(=O)Nc1ccc(N2CCCC2)c(Cl)c1	-0.13
O=C(Nc1nc2ccc(Br)cc2s1)c1ccc(Cl)cc1	1.2
Cc1c(C(=O)N/C(N)=N/c2nc3ccccc3o2)cccc1[N+](=O)[O-]	0.52
O=C(O)c1nc[nH]c1C(=O)O	-0.17
O=C(NCC1CCCO1)c1cc(=O)[nH]c2ccc(Br)cc12 (stereo not drawn)	1.6
Cc1ccc([N+](=O)[O-])c(NC2OC(CO)C(O)C2O)c1 (stereo not drawn)	1.3
COC(=O)C1=C(C)Nc2ncnn2C1c1ccc(OCc2ccccc2)cc1 (stereo not drawn)	1.1
O=[N+]([O-])c1ccc(-c2nc3c4ccccc4nc(=S)n3[nH]2)cc1	0.08
COc1ccccc1Nc1ncc(C(=O)NCCCN2CC(C)CC(C)C2)c2ccccc12 (stereo not drawn)	-0.18
O=C(Nc1ccccc1-c1nc2ccccc2s1)c1ccc(S(=O)(=O)N2CCCCCC2)cc1	0.69
CCc1ccc(CNCc2ccc3c(c2)OCO3)cc1	2.2

Rewritten as comma-separated lines: part of the list above.
compound,Measles inh
CCCCNC(=O)c1nn2c(C(F)(F)F)cc(-c3ccc(OC)cc3)nc2c1Br,-0.66
CN(C(=O)c1ccccn1)C1(C(=O)NC2CCCCC2)CCCCC1,-0.66
CCC1Oc2ccc(Cl)cc2N(C(C)C(=O)NCCC(C)C)C1=O (stereo not drawn),-1.2
CCC(C)C(NS(=O)(=O)c1cccc2nsnc12)C(=O)O (stereo not drawn),-0.04
Cc1ccc(Cc2nc3cc(C)c(C)cc3[nH]c2=O)c(C)c1,0.29
COc1cc(C)nc(N(CC(N)=O)S(=O)(=O)c2ccccc2)n1,-0.27
O=C(CN1C(=O)CSc2ccc(S(=O)(=O)N3CCCCC3)cc21)NCc1cccnc1,0.24
CC1=C(C(=O)OC(C)C)C(c2ccncc2)C2=C(CC(c3ccccc3)CC2=O)N1 (stereo not drawn),-0.14
O=c1nc(N2CCOCC2)c(Cl)cn1-c1nc(-c2ccccc2)oc1-c1ccccc1,0.22
CC(C)C(=O)Nc1ccc(N2CCCC2)c(Cl)c1,-0.13
O=C(Nc1nc2ccc(Br)cc2s1)c1ccc(Cl)cc1,1.2
Cc1c(C(=O)N/C(N)=N/c2nc3ccccc3o2)cccc1[N+](=O)[O-],0.52
O=C(O)c1nc[nH]c1C(=O)O,-0.17
O=C(NCC1CCCO1)c1cc(=O)[nH]c2ccc(Br)cc12 (stereo not drawn),1.6
Cc1ccc([N+](=O)[O-])c(NC2OC(CO)C(O)C2O)c1 (stereo not drawn),1.3
COC(=O)C1=C(C)Nc2ncnn2C1c1ccc(OCc2ccccc2)cc1 (stereo not drawn),1.1
O=[N+]([O-])c1ccc(-c2nc3c4ccccc4nc(=S)n3[nH]2)cc1,0.08

The listing continues:
SMILES	Measles inh
CN(C)S(=O)(=O)c1cc([N+](=O)[O-])ccc1N1CCc2ccccc2C1	-0.69
CCOc1ccccc1C(=O)Oc1c(S(=O)(=O)c2ccc(C)cc2)c(C)nn1C(C)(C)C	-0.57
CCOC(=O)c1c(NC(=O)c2ccc(Cn3nc(C)c([N+](=O)[O-])c3C)o2)sc(C)c1C	1.6
Cc1c(C(=O)Nc2c3c(nn2-c2ccc(Cl)cc2)CS(=O)(=O)C3)cccc1[N+](=O)[O-]	-1.1
COC(=O)C(C)Sc1nc2ccccc2[nH]1 (stereo not drawn)	0.76
O=C(NCCCO)C(=O)Nc1ccccc1F	1.4
CCOc1ccccc1NC(=O)CN1C(=O)C2C3C=CC(C3)C2C1=O (stereo not drawn)	1.3
COc1ccc(NC(=O)c2cc3nc(-c4ccc(Cl)cc4)cc(C(F)(F)F)n3n2)cn1	0.78
CCn1c(SCC(=O)N2CCCC2)nnc1-c1c[nH]c2ccccc12	-1.9
COc1ccccc1NC(=O)Nc1nnc(COc2ccccc2F)s1	-0.81
COC(=O)c1c(NC(=O)COc2ccccc2C(C)(C)C)sc2c1CCCC2	0.03
Cc1ccc(/C(O)=C2\C(=O)C(=O)N(Cc3cccnc3)C2c2ccc(C(C)C)cc2)cc1 (stereo not drawn)	-0.15
Cc1cccc(C)c1NC(=O)c1c(C(=O)O)cccc1[N+](=O)[O-]	0.06
COc1ccc(C)cc1NS(=O)(=O)c1ccc2c(c1)CCN2C(=O)C1CCC1	-0.3
Cc1ccc(NC2=CC(c3ccc4c(c3)OCO4)N(c3ccc(C)cc3)C2=O)cc1 (stereo not drawn)	1.3
COC(=O)c1cc(NC(=O)CCn2c(=S)oc3ccccc32)cc(C(=O)OC)c1	-0.09
O=C1CC(NCc2ccc3c(c2)OCO3)C(=O)N1c1ccc(OC(F)(F)Cl)cc1 (stereo not drawn)	-0.2
Cc1ccc(NC(=O)CNS(=O)(=O)c2ccc(Br)s2)cc1Cl	-2.7
Cc1ccc(NS(=O)(=O)c2ccc3c(c2)CCN3C(=O)C2CC2)c(Cl)c1	-0.71
O=S1(=O)CCC(NS(=O)(=O)c2ccc(Cl)cc2)C1 (stereo not drawn)	0.19
O=C(O)Cn1cnc2sc(-c3ccccc3)cc2c1=O	-0.23
Cc1ccc(N2CCN(c3ccc(C)cc3)C2c2ccncc2)cc1	-0.57
C=CCSc1nnc2c(n1)OC(c1ccc(OC)c(OC)c1)N(C(C)=O)c1ccccc1-2 (stereo not drawn)	0.59
CC(C)(C)C(=O)Nc1ccc(C(=O)Nc2nccs2)cc1	0.92
Cc1ccccc1Nc1nc(C2(C)CC(CCC(C)C)C(=O)O2)cs1 (stereo not drawn)	0.21
O=C(CCn1c(=O)c2ccccc2n(Cc2cccc(Cl)c2)c1=O)NCc1ccccc1Cl	-0.01

Screening data: PubChem, Emory University Molecular Libraries Screening Center
